KCNQ2 block: KCNQ2 potassium channel inhibitors, primary screen, cell-based, CHO-K1, FluxOR thallium flux, B-score (AID 2156); O88943; 20 min; hits give low values; only compounds with negative scores are shown here; some inactives read as strong as hits; B-score at 10 µM; hit rate 1.1% among 310,000;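 active = fluorescence ratio B-score at most minus 3 library SDs, with starting brightness B-score within 2 library SDs, cut at about -5.5 in these data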
Target sequence (O88943 whole entry, looked up): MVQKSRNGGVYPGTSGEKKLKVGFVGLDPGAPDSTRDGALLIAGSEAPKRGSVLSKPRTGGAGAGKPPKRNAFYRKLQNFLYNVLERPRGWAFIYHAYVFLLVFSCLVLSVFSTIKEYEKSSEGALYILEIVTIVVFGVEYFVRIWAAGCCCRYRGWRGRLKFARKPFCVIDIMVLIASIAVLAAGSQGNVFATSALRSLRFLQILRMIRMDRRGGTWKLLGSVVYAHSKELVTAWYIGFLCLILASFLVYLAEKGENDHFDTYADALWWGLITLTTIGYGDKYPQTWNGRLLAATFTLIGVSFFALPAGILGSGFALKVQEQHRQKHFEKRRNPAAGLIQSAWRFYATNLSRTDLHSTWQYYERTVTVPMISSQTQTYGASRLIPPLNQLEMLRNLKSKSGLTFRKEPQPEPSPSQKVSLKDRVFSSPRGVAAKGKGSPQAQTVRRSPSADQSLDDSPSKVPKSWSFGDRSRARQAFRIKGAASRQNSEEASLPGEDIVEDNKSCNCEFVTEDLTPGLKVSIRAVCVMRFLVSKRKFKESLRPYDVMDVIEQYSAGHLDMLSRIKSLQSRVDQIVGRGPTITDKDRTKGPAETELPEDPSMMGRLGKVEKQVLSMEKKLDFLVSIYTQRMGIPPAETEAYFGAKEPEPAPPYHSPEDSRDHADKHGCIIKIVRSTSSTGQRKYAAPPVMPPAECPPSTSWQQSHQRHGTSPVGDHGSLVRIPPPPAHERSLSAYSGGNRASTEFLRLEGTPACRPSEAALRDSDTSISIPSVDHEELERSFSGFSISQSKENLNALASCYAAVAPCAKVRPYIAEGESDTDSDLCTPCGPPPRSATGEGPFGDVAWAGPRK
KCNQ2 block baseline: recorded beside KCNQ2 block, whose call it bears; B-score; measured here: initial fluorescence intensity artifact check;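 brightness before thallium and not channel activity; 0 = typical well and far values either way flag optical interference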
* hit, by the source's call; i = inactive.

The first 2 records (preview)
Every second line gives: KCNQ2 block	KCNQ2 block baseline
[1] Cc1cc(N2CCOCC2)n2ncc(-c3ccccc3Cl)c2n1
 : i	-1.8
[2] Cc1ccc(Nc2nc(N3CCN(C)CC3)nc(N)c2[N+](=O)[O-])cc1C
 : i	0.49

All compounds of this part, repeating the preview:
Every second line gives: KCNQ2 block	KCNQ2 block baseline
[1] Cc1cc(N2CCOCC2)n2ncc(-c3ccccc3Cl)c2n1
 : i	-1.8
[2] Cc1ccc(Nc2nc(N3CCN(C)CC3)nc(N)c2[N+](=O)[O-])cc1C
 : i	0.49
[3] COc1ccccc1C1CC(=O)Nc2cc3c(cc21)OCCO3 (stereo not given)
 : i	0.57
[4] O=C(O)C(c1ccccc1)C1(O)CCCC1 (stereo not given)
 : i	-1.5
[5] Cc1cc(C)nc(N/N=C/C=C/c2ccccc2)n1
 : i	-0.59
[6] Cn1c(SCC(N)=O)nnc1C1CCN(C(=O)NCc2ccccc2)CC1
 : i	-0.12
[7] C/C=C/c1ccc(OCCOc2ccc(C=O)cc2)c(OC)c1
 : i	2.3
[8] CCOC(=O)c1c(NCC2CCCO2)c2ccccc2[nH]c1=O (stereo not given)
 : i	2.2
[9] COCCNC(=S)NNc1ccc(Cl)c(C(=O)O)c1
 : i	0.27
[10] O=C1c2ccccc2NC(c2cn[nH]c2-c2ccccc2)N1O (stereo not given)
 : i	3.3
[11] COc1ccc(CCn2c(-c3cc([N+](=O)[O-])cc([N+](=O)[O-])c3)nc3nc4ccccc4nc32)cc1
 : i	1.1
[12] CN(Cc1cccc2ncccc12)C(=O)CC1C(=O)NCCN1Cc1ccc(F)cc1 (stereo not given)
 : i	0.51
[13] O=C(Nc1cccnc1)c1cc2cc(Br)ccc2o1
 : i	0.93
[14] Cc1nn(C)c(C(=O)Nc2ccc(S(=O)(=O)NC34CC5CC(CC(C5)C3)C4)cc2)c1Br
 : i	1.2
[15] Cc1cc(SCC(N)=O)nc(SCC(=O)c2ccccc2)n1
 : i	-0.52
[16] CS(=O)(=O)N1CCCC(C(=O)NCCCN2CCc3ccccc3C2)C1 (stereo not given)
 : i	-0.74
[17] O=[N+]([O-])c1cccc(C(=S)N2CCN(c3ccccc3F)CC2)c1
 : i	1.4
[18] Cc1ccccc1CSCCC(=O)NCCC1=CCCCC1
 : i	-0.7
[19] Cc1ccc(NC(=O)/C(=C\c2cccc([N+](=O)[O-])c2)NC(=O)c2cccs2)cc1
 : i	0.3
[20] COc1ccc(N2C(=O)c3ccccc3NC2c2ccc(OC)c(Cn3nnc4ccccc43)c2)cc1 (stereo not given)
 : i	0.49
[21] CC(C)[C@@H](C(=O)N[C@@H](C(=O)O)c1ccccc1)N1C(=O)N2CCc3c([nH]c4ccccc34)[C@@]2(C)C1=O
 : i	0.26
[22] O=C(N=c1ccn(-c2nc3ccccc3nc2NS(=O)(=O)c2ccccc2)cc1)c1ccccc1Cl
 : i	0.67
[23] CCOC(=O)c1cnc(-c2cccc(OC)c2)[nH]c1=O
 : i	-0.51
[24] C=CCNC(=S)NNC(=O)c1ccc2c(c1)OCO2
 : i	1.1
[25] CC(C)(C)c1cc(C(=O)NNc2cc(C(F)(F)F)ccc2Cl)n(Cc2ccccc2)n1
 : i	0.88
[26] Cc1cc(Cl)c2oc(C(=O)N(C)CCCN3CCOCC3)c(C)c2c1
 : i	-0.88
[27] O=C1CCNc2c(Cl)cc(Cl)cc21
 : i	3.6
[28] CCS(=O)(=O)Nc1cccc(C2=NN(S(=O)(=O)c3ccccc3)C(c3cccs3)C2)c1 (stereo not given)
 : i	0.03
[29] COc1ccc(-c2cc(C(=O)NCCc3ccc(S(N)(=O)=O)cc3)c3ccccc3n2)cc1
 : i	1.7
[30] COc1ccc(-c2coc3c(C)c4oc(=O)c(CC(=O)O)c(C)c4cc23)cc1
 : i	-2.1
[31] O=C(CN1CCc2ccccc21)Nc1ccc2c(c1)OCO2
 : i	3.3
[32] CCc1ccc(NC(=O)N2CCC(c3ccccc3)C2)cc1 (stereo not given)
 : i	-0.83
[33] CC1(c2ccc(Cl)c(Cl)c2)NC(=S)N2C1NC(=S)N2c1ccccc1 (stereo not given)
 : i	-0.19
[34] Clc1ccc(/C=N\Nc2ccccc2)cc1
 : i	-0.17
[35] CCCC(=O)c1cc(F)c(N2CCN(CCC#N)CC2)cc1C
 : i	0.02
[36] CCOc1ccccc1NC(=S)N(CCCN1CCOCC1)Cc1cn(C)c2ccccc12
 : i	0.47
[37] Cc1ccc(N(C)C(=O)C2CCCN2S(=O)(=O)c2cccc3nsnc23)cc1 (stereo not given)
 : i	1.2
[38] COc1ccc(C(=O)Nc2ccc3nc(C)sc3c2)cc1OC
 : i	0.01
[39] CC1Sc2ccc(S(=O)(=O)NCCc3ccc(Cl)cc3)cc2NC1=O (stereo not given)
 : i	0.44
[40] Oc1ccc2ccccc2c1C=NCc1cn2ccsc2n1
 : i	-0.64
[41] CCOc1ccccc1Oc1c(C)oc2cc(OC(=O)N3CCOCC3)ccc2c1=O
 : i	-1.5
[42] C=CCNC(=O)N1CCC(c2nc3ccccc3s2)CC1
 : i	0.03
[43] CSCCC(NC(=O)c1ccc(Cl)cc1)C(=O)OCC(=O)Nc1ccc(C#N)cc1 (stereo not given)
 : i	-2.7
[44] CN1C(=O)[C@H]2[C@@H](C3CC3)N3C(=O)CN(Cc4ccccn4)C(=O)[C@@]3(Cc3ccccc3)[C@H]2C1=O
 : i	1.5
[45] CCOC(=O)Nc1cccc(NC(=O)c2cc(OC)cc(OC)c2)c1
 : i	0.2

An excerpt of these results, field by field:
6) Cn1c(SCC(N)=O)nnc1C1CCN(C(=O)NCc2ccccc2)CC1
  KCNQ2 block: i
  KCNQ2 block baseline: -0.12
23) CCOC(=O)c1cnc(-c2cccc(OC)c2)[nH]c1=O
  KCNQ2 block: i
  KCNQ2 block baseline: -0.51

(more compounds)
Every second line gives: KCNQ2 block	KCNQ2 block baseline
[46] COc1ccc(F)cc1S(=O)(=O)Nc1ccc(C)cc1
 : i	-1.1
[47] COc1ccc(N2C(=NC(=O)C3CCCCC3)SC3CS(=O)(=O)CC32)c(OC)c1 (stereo not given)
 : i	0.95
[48] CC(=O)Nc1ccc(S(=O)(=O)Nc2cccc(NC(=O)C(C)(C)C)c2)cc1
 : i	0.29
[49] Cc1ccc(C(=O)NC(C)c2ccc(-n3ccnc3)cc2)o1 (stereo not given)
 : i	1.9
[50] CCC(C)c1ccc(OCc2ccc(C(=O)OC)o2)cc1 (stereo not given)
 : i	-1.1
[51] COC(=O)[C@@H](NC(=O)NCc1ccccc1F)C(C)C
 : i	1.1
[52] O=C(On1c(-c2ccccc2)nc2ccccc2c1=O)c1ccco1
 : i	0.19
[53] CCOC(=O)c1ccc(NC(=O)C2CCN(S(=O)(=O)CC)CC2)cc1
 : i	0.74
[54] c1ccc(-c2csc3ncnc(N4CCc5ccccc5C4)c23)cc1
 : i	-0.11
[55] Cc1ccc(C2CN=NC23CCc2ccccc2C3=O)cc1 (stereo not given)
 : i	3.7
[56] O=C(c1ccccc1Sc1ccc([N+](=O)[O-])cc1Cl)N1CCOCC1
 : i	-0.14
[57] Cc1cc2ncn(C(=O)c3c(-c4ccccc4)noc3C)c2cc1C
 : i	-1.2
[58] COc1ccc2occ(C(=O)c3ccccc3)c2c1
 : i	-0.01
[59] Cn1cccc2[nH]c(=O)nc1-2
 : i	0.73
[60] Nc1nnc(CC(=O)N/N=C/c2ccc(-c3ccccc3Cl)o2)s1
 : i	0.52

The final four records of the part before open the next one:
Every second line gives: KCNQ2 block	KCNQ2 block baseline
[57] Cc1cc2ncn(C(=O)c3c(-c4ccccc4)noc3C)c2cc1C
 : i	-1.2
[58] COc1ccc2occ(C(=O)c3ccccc3)c2c1
 : i	-0.01
[59] Cn1cccc2[nH]c(=O)nc1-2
 : i	0.73
[60] Nc1nnc(CC(=O)N/N=C/c2ccc(-c3ccccc3Cl)o2)s1
 : i	0.52
[61] COCCNc1nc(SC)nc2sc3c(c12)CCN(C)C3
 : i	0.11
[62] O=C1[C@H]2[C@@H](c3ccc(Cl)cc3)N3C(=O)N(c4cccc(Br)c4)C(=O)[C@@]3(Cc3ccc(Cl)cc3)[C@H]2C(=O)N1C1CCCCC1
 : i	-0.44
[63] O=C(O)c1ccccc1SCC(=O)N1CCc2ccccc21
 : i	-0.03
[64] Cc1ccc(C)c(NS(=O)(=O)c2cc(C(=O)N3CCCC3)ccc2Cl)c1
 : i	1
[65] COc1ccc(CNS(=O)(=O)c2ccc3c(c2)CCN3C(=O)C2CC2)cc1
 : i	-0.12
[66] Cc1ccc(-c2nnc(N3CCN(C(=O)CN4C(=O)c5ccccc5C4=O)CC3)c3ccccc23)cc1
 : i	0.59
[67] O=C(O)C1CCN(c2nc(-c3ccccc3)c3cc(Br)ccc3n2)CC1
 : i	2.7
[68] CCCC(=O)Nc1cccc(C(=O)Nc2ccccc2OCC)c1
 : i	-1.2
[69] CC(C)Cn1c(=O)c2ccccc2n2c(CCC(=O)NCC3CCCO3)nnc12 (stereo not given)
 : i	0.1
[70] Cc1nnc(SCCC(C)C)[nH]c1=O
 : i	1.9
[71] Cc1cc(NC(=O)CN2CCC(n3nnc4cc(C(F)(F)F)ccc43)CC2)no1
 : i	0.28
[72] COC(=O)C1=CN(c2ccc(F)cc2)C=C(C(=O)OC)C1c1cccc([N+](=O)[O-])c1
 : i	-0.81
[73] COc1ccc(OC)c(-c2csc(NC(=O)Cc3ccccc3F)n2)c1
 : i	0.1
[74] O=C(COC(=O)[C@H](Cc1ccccc1)NC(=O)c1ccco1)NCc1ccccc1
 : i	-1.6
[75] CC[C@@H](C)C(NC(=O)OC(C)(C)C)c1cn([C@@H](Cc2cc3ccccc3[nH]2)C(=O)N2CCN(C(=O)OC(C)(C)C)CC2)nn1 (stereo not given in full)
 : i	2.2
[76] Cc1cc(NC(=O)CSc2nc3ccccc3n2CC(C)C)no1
 : i	-0.04
[77] COCCCNC(=S)N1CCN(S(=O)(=O)c2ccc(OC)cc2)CC1
 : i	-2.3
[78] O=C(c1cc(COc2c(F)cccc2F)on1)N1CCC(c2ccccc2Cl)C1 (stereo not given)
 : i	-0.46
[79] CC(C(=O)O)n1cnc2sc3c(c2c1=O)CCCC3 (stereo not given)
 : i	0.24
[80] CCOC(=O)C1=C(C)Nc2nc(C)nn2C1c1ccc(OCC)c(OC)c1 (stereo not given)
 : i	-0.13
[81] COc1ccc(S(=O)(=O)N(CC(=O)N/N=C/c2cccs2)c2ccc(C)cc2)cc1OC
 : i	-0.05
[82] CN(CC(=O)Nc1ccccc1C(=O)N1CCCC1)S(=O)(=O)c1ccc(Cl)cc1
 : i	0.11
[83] S=C(c1ccc(-c2ccccc2)o1)N1CCCCC1
 : i	-1.3
[84] O=C(NCC1CCCO1)c1ccc(COc2ccc(F)cc2)o1 (stereo not given)
 : i	0.27
[85] COc1ccc(NC(=O)CN2C(=O)C(C)Oc3ccc(C)cc32)cc1 (stereo not given)
 : i	-0.3
[86] COC(=O)/C=C1\SC(N)=NC1=O
 : i	-0.07
[87] COCCNC(=S)N/N=C(\C)c1ccccc1F
 : i	-0.04
[88] CS(=O)(=O)N1CCN(C(=O)Cc2ccccc2Cl)CC1
 : i	0.04
[89] Cc1nn(-c2ccccn2)c2c1-c1nc(N3CCOCC3)ncc1CC2
 : i	-1
[90] Cc1cccc(NC(=O)Nc2nnc(-c3ccccc3)o2)c1
 : i	-0.7
[91] CCCN(CCC)C(=O)CC(c1ccccc1)C1CCOC(C)(C)C1 (stereo not given)
 : i	0.72
[92] CCCCN(CCCC)CC(O)Cn1c2ccccc2c(=O)c2ccccc21 (stereo not given)
 : i	0.06
[93] CCCCCCCNC(=O)C1(CC2CC(c3cccc(Br)c3)=NO2)CCN(C(=O)c2ccccc2)CC1 (stereo not given)
 : i	-1.5
[94] COc1cc(/C=C2\C(=O)NN(c3ccc(C)cc3)C2=O)cc([N+](=O)[O-])c1O
 : i	-1.7
[95] CCc1nnc(NS(=O)(=O)c2ccc(NC(=O)c3ccco3)cc2)s1
 : i	2
[96] O=C(NC1CCC(O)CC1)c1cc(-c2ccco2)nc2ccccc12 (stereo not given)
 : i	1.5
[97] Cc1ccc(C2(CCNCc3ccc(N(C)C)cc3)CCOC(C(C)C)C2)cc1 (stereo not given)
 : i	0.3
[98] COc1ccc(OC)c(C2=Nn3c(nnc3-c3cccc(OC(C)C)c3)SC2)c1
 : i	1.6
[99] OCCCc1nc2n(n1)C(c1ccccc1)C=C(c1ccc(F)cc1)N2 (stereo not given)
 : i	2.1
[100] COCCC(=O)Nc1ccc2c(c1)CN(C(=O)c1ccc(CSC)o1)CC2
 : i	0.81
[101] O=C(O)c1cccc(S(=O)(=O)N2CCC(Cc3ccccc3)CC2)c1
 : i	0.13
[102] COC(=O)c1[nH]c2ccc(C)cc2c1NS(=O)(=O)c1ccc(F)cc1
 : i	-0.44
[103] Cc1ccc(NC(=O)c2cc(=O)n(Cc3ccccc3)c(=O)[nH]2)cc1C
 : i	0.14
[104] Cc1ccc(-c2csc(NCCc3nc4cc(Cl)c(Cl)cc4n3CCOCCO)n2)cc1
 : i	-0.42
[105] O=S(=O)(NC1CCCCC1N1CCCCC1)c1ccccc1 (stereo not given)
 : i	1.9
[106] Cc1ccc(CSCCNC(=O)/C=C/c2ccccc2Cl)cc1
 : i	0.54
[107] C/C(=N\NC(=O)COc1ccc(C)cc1Br)c1cc([N+](=O)[O-])cs1
 : i	0.14
[108] COc1ccc(NC(=S)NC(NC(=O)/C=C/c2ccccc2)C(Cl)(Cl)Cl)cc1 (stereo not given)
 : i	2.2
[109] Cc1ccc(C2CC(c3cccc(Br)c3)n3nc(N)nc3N2)cc1 (stereo not given)
 : i	0.03
[110] CCc1nc(CNC(=O)C2CCC(=O)N(Cc3cccc(OC)c3)C2)no1 (stereo not given)
 : i	0.68
[111] COc1cc(/C=N/Nc2ccc(Cl)c(C(=O)O)c2)ccc1OCC(=O)N1C(C)CCCC1C (stereo not given)
 : i	1.2
[112] CCn1c(SCc2ccc(F)cc2)nnc1-c1nn(-c2ccccc2)ccc1=O
 : i	-0.97
[113] CCCCCC(=O)N1CCN(CCN=CC2=C(O)CC(c3ccc(OC)cc3)CC2=O)CC1 (stereo not given)
 : i	0.03

The list is partial; rates above refer to the full screens.
